Screens (PubChem BioAssay)
Six1-Eya2 blk: qHTS Assay for Inhibitors of the Six1/Eya2 Interaction; AlphaScreen GST-Six1/His-Eya2 binding, biochemical; active compounds read low; control for the full effect not named in the record; activity change, % (concentration not given with the values); 360,000 compounds, 0.56% hits; AID 651725, 2012; in the data active = activity change below about -65%; inconclusive = about -30% to -65%; inactive = above about -30%; note: % is set by controls: 0 for no effect and ±100 for the full control effect
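GST-Six1 + His-Eya2 (5X stock: 250/500 nM); Tris pH 8.0, 300 mM NaCl, 0.05% BSA, 0.02% Tween 20; GSH donor/Ni acceptor beads; 1 h 37 °C dark; AlphaScreen readout.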
D2 PAM: Beta-Arrestin HTS for Positive Allosteric Modulators of the Human D2 Dopamine Receptor: Potentiators; potentiation, % (concentration not given with the values); DiscoveRx D2 beta-arrestin cells, luminescence, 90 min; 100% = 57 uM dopamine signal; AID 624464, 2012; 360,000 compounds, 0.23% hits; D(2) dopamine receptor (Homo sapiens), P14416; active = potentiation of 50% or more; inconclusive = 30% to 50%; inactive = 30% or less;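 note: tested on top of an EC20 dose of dopamine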
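PathHunter D2 cells, attached overnight at 37 deg C, received compound in DMSO plus dopamine at EC20 (50 nM final) for 90 min at 37 deg C. Beta-arrestin recruitment was read as luminescence after 1 h with detection reagent at ambient temperature.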
CtBP-E1A blk: qHTS Assay for Inhibitors of the CtBP/E1A Interaction; CtBP / adenovirus E1A interaction (AlphaScreen); AID 651724, 2012; activity change, % (concentration not given with the values); AlphaScreen GST-E1A/His-CtBP binding, 1536-well; active compounds read low; control for the full effect not named in the record; 340,000 compounds, 0.49% hits; in the data active means activity change below about -65%; inconclusive means about -30% to -65%; inactive means above about -30%; note: % is set by controls: 0 for no effect and ±100 for the full control effect
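Protein mix (5X: 125 nM each GST-E1A, His-CtBP) was incubated with pinned compound 2 h at 37 deg C in dark, in 50 mM Tris pH 8.0 buffer with 300 mM NaCl. Glutathione donor and nickel acceptor beads followed; AlphaScreen signal read after 1 h.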
TRPV1 potentiator: HTS Assay for Compounds that Act as Potentiators of the Vanilloid Receptor 1; Transient receptor potential cation channel subfamily V member 1 (Homo sapiens), Q8NER1; TRPV1-expressing cells, Fluo-8 calcium influx, capsaicin EC20 potentiation; host cell line not named in the record; control for the full effect not named in the record; potentiation, % at 8.33 µM; 320,000 compounds, 0.02% hits; AID 540277, 2011; active means potentiation above 80%; inconclusive means 30% to 80%; inactive means below 30%; note: 0% is about no effect
Target sequence (Q8NER1 whole entry, looked up): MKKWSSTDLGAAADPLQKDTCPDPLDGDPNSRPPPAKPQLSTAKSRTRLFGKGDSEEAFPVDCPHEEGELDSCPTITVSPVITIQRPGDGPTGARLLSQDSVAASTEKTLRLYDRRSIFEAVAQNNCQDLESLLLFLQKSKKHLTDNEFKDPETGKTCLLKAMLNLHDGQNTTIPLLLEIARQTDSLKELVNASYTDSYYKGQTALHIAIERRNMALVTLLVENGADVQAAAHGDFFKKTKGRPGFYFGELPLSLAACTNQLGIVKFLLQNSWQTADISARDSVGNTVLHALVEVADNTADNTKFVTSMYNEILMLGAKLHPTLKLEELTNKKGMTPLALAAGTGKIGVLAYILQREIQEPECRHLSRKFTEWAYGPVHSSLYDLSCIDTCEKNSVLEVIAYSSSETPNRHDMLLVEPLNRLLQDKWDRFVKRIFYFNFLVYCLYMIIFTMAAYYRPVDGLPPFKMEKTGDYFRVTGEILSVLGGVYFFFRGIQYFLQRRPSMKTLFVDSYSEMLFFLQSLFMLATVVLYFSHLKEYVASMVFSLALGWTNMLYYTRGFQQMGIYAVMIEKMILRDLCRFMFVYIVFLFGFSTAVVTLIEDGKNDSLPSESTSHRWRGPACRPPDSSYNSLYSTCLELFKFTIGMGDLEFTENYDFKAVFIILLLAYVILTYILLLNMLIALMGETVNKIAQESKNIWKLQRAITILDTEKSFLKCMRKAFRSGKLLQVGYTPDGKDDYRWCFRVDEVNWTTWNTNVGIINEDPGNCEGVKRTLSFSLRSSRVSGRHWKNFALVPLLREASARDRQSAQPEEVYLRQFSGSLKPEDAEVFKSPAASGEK
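Cells expressing TRPV1 were dye-loaded with Fluo-8 and read kinetically: 10 s baseline, 3 min after compound (agonist portion), then 2 min after EC20 capsaicin (allosteric enhancer portion). Calcium-bound dye fluorescence at 480/520 nm.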
TRPML1 agonist: qHTS for Agonists of the Human Mucolipin Transient Receptor Potential 1 (TRPML1); Mucolipin-1 (Homo sapiens), Q9GZU1; TRPML1-expressing cells, Ca2+ dye fluorescence, FDSS; host cell line not named in the record; reference of the full effect not given here; activation, % (no concentration beside the values); 410,000 compounds, 0.12% hits; AID 624414, 2012; in the data active = activation above about 50%; inconclusive = about 30% to 50%; inactive = below about 30%; note: 0% is about no effect; the text of the record puts the active cut at 80%
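Kinetic FDSS Ca2+ read in Tet-induced TRPML1-DL cells (ABD Ca8 dye plus quencher, 45-90 min RT loading): baseline, then compound, then 110 s agonist window; EC80 agonist 54-4 at 4uM final added afterwards for a 110 s antagonist window.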
TRPML1 inh: qHTS for Inhibitors of the Human Mucolipin Transient Receptor Potential 1 (TRPML1); Mucolipin-1 (Homo sapiens), Q9GZU1; TRPML1-inducible cells, Ca2+ dye fluorescence, FDSS; active compounds read low; inhibition of EC80 agonist-evoked calcium signal; activity change, negative = inhibition, % (no concentration beside the values); 390,000 compounds, 0.02% hits; AID 624415, 2012; in the data active means activity change below about -50%; inconclusive means about -30% to -50%; inactive means above about -30%;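 note: stimulus is agonist 54-4 at its EC80 concentration; % is set by controls: 0 for no effect and ±100 for the full control effect; compound concentration not given in the record; the text of the record puts the active cut at -80%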
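TRPML1-DL cells, Tet-induced overnight (~16 h, 37 °C) at 1,500 cells/well, were loaded with Ca8 no-wash dye plus quencher for 45-90 min at room temperature. Compounds were pinned during FDSS kinetic reading; agonist 54-4 at EC80 (4 uM final) then added.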
The depositor's hits bear a star; ? = inconclusive; . = not tested or not shown; & = joins results of further samples.

structure | Six1-Eya2 blk | TRPML1 inh | TRPV1 potentiator | D2 PAM | CtBP-E1A blk | TRPML1 agonist
O=[N+]([O-])c1ccccc1CNC1CCCc2ccccc21 (configuration not stated) | 3 | -25 | -3 | -43 | . | 1.0
O=C(COC(=O)c1cc(S(=O)(=O)N2CCOCC2)c(Cl)cc1Cl)NCc1ccco1 | 0 | 26 | . | -1 | 0 | -0.1
Nc1nc(COC(=O)C2CCN(C(=O)c3ccc(Cl)cc3)CC2)nc(Nc2ccccc2)n1 | -7 | 10 | -5 | -5 | . | 0.0
O=c1c2ccccc2c(C=Nc2cccc(S(=O)(=O)NCc3ccco3)c2)c(O)n1-c1ccc(Cl)cn1 | -1 | -26 | -6 | -4 | -13 | 0.8
Cc1nnc(NC(=O)CCC(=O)NCc2ccco2)s1 | 11 | -9 | -6 | 1 | -5 | 0.0
O=C(CN1CCNCC1)N1CCOCC1 | 4 | . | . | -2 | 6 | -0.7
Cn1c(Cc2ccccc2)nnc1SCC(=O)N1CCCCC1 | 3 | 7 | 16 | -1 | 1 | 0.1
CSc1ccccc1C(=O)N1CCC(CCC(=O)NC2CC2)CC1 | 9 | 13 | 7 | 0 | . | 0.9
Cc1c(Cl)cccc1NC(=O)Cn1cccc1 | -1 | -5 | 2 | -10 | -3 | 0.4
c1csc(CNc2ncnc3nc[nH]c23)c1 | 3 | -21 | -10 | -1 | -1 | -0.2&0.1&-0.1
Cc1nn(Cc2c(F)c(F)c(F)c(F)c2F)c(C)c1NC(=O)c1c([N+](=O)[O-])c(C)nn1C | 2 | 13 | 0 | -3 | 1 | 2.8
CCOCCn1ccc2c(OCC(=O)Nc3cc(OC)ccc3OC)cccc2c1=O | -26 | 34 | 12 | 3 | -19 | 2.2
CCOc1ccc(S(=O)(=O)N(C)CC(=O)NCc2ccc3c(c2)OCO3)cc1 | -3 | 6 | 1 | -7 | 1 | -0.4
COc1ccc(N2CCN(C(=O)CCN3C(=O)c4ccccc4S3(=O)=O)CC2)cc1 | -14 | -3 | 4 | -3 | -5 | -0.1
CCNC(=S)Nc1ccccc1-c1ccccc1 | -6 | -13 | -20 | -6 | 1 | -0.5
CC(C)(C)SCCNC(=O)CN(c1ccc(F)cc1)S(C)(=O)=O | 3 | 1 | ? | -6 | 5 | 0.4
CC1(NC(=S)N(CCO)CCO)CCS(=O)(=O)C1 (configuration not stated) | 2 | 3 | -7 | -6 | 1 | 0.3
COc1ccc(NC(=O)CSCC(=O)N2c3ccccc3CCc3ccccc32)cc1 | 1 | 12 | 5 | -5 | . | -0.1
O=C(CSc1n[nH]c(-c2ccccc2)n1)Nc1ncccn1 | -7 | 0 | 2 | -9 | 2 | 1.8
COc1ccc(NC(=O)Nn2cnnc2)cc1OC | -2 | -18 | -1 | -16 | 0 | 0.1
COc1ccc(OC)c(S(=O)(=O)NC(=O)C2(C)CCN2C(=O)Cc2ccccc2Cl)c1 (configuration not stated) | 6 | . | . | -7 | 4 | -0.9
O=c1c2c(-c3ccccc3)csc2ncn1/N=C/c1cccc([N+](=O)[O-])c1O | ? | -2 | 6 | -32 | -72* | 0.1
CCCn1c(SCC(=O)Nc2ccccc2C(=O)OC)nc2c1c(=O)n(C)c(=O)n2C | 0 | -1 | -1 | 0 | 10 | -0.3
CCc1nnc(NC(=O)CSc2nc(C)nc3c2c(=O)n(C)c(=O)n3C)s1 | -3 | -6 | -2 | 1 | 9 | -0.4
Cn1cc(CN2CCN(c3ncccn3)CC2)c(-c2cccc(Cl)c2)n1 | -12 | -5 | -11 | -6 | -22 | 1.4
C/C(=N\N=C1\NC(=O)CS1)c1cccs1 | 6 | 6 | 2 | -2 | . | 1.1
Cc1ccc(S(=O)(=O)N2CCCN(C(=O)CNC(=O)c3ccccc3)CC2)cc1 | 7 | 2 | -11 | -12 | -2 | 0.0
O=C(Nc1ccc(Cl)c(S(=O)(=O)N2CCOCC2)c1)C1CCC1 | 2 | 41 | -13 | -1 | 1 | 1.7
COC(=O)c1ccc(Cn2c(O)c(N=O)c3ccccc32)o1 | -2 | -10 | ? | 11 | -10 | 3.2
COC(=O)c1cccc(N(C(=O)CNC(=O)c2cccs2)C(C(=O)NCC2CCCO2)c2ccc(OC)c(OC)c2)c1 (configuration not stated) | -3 | 3 | 0 | 0 | -1 | -0.4
COc1ccc(-n2nnnc2SCC(=O)c2ccc(O)c(O)c2)cc1 | -10 | 10 | 6 | 5 | -10 | 3.1
CCc1ccc(OCC(=O)NNC(=O)c2cc3ccccc3o2)cc1 | 6 | -18 | 20 | -1 | -1 | 0.1
COc1ccc(-c2cc3c(c4c2ccn4C)C2CCC3C2)cc1F (configuration not stated) | -13 | . | . | -5 | -4 | 0.5
COCCNC(=S)N1CCc2cc(OC)c(OC)cc2C1COc1ccc(C(C)C)cc1 (configuration not stated) | -10 | -6 | 10 | -1 | -10 | 0.0
O=C(COC(=O)/C=C/c1ccccc1Cl)NC(=O)NC1CCCC1 | -1 | 25 | -5 | 6 | -18 | 4.4
COc1cc(OC)cc(C(=O)N[C@H](C(=O)NCc2ccc(F)cc2)C(C)C)c1 | 1 | -3 | -12 | -3 | -5 | 1.9
COc1ccccc1N1CCN(C(=O)c2ccc3c(=O)n(Cc4ccc5c(c4)OCO5)c(=O)[nH]c3c2)CC1 | -2 | 14 | 1 | -18 | -23 | 0.5
Brc1cccc(CN2CCN(c3ncccn3)CC2)c1 | 2 | -1 | 2 | ? | 8 | 0.7
O=C(Nc1ccn(Cc2ccccc2)n1)c1n[nH]c([N+](=O)[O-])c1Cl | -22 | -16 | 16 | -5 | -20 | 3.0
CCCCNc1c(-c2ccc(SC3CCCCC3)c(OC)c2)nc2ccc(C)cn12 | -8&-12 | 27 | . | 2 | -9&0 | -1.3&-0.5
CN(c1ccc(C(=O)NCc2cccnc2)cc1)S(=O)(=O)c1ccc(Cl)cc1 | -2 | 7 | 0 | -26 | -11 | 0.5
N#C/C(=N\Nc1cccc([N+](=O)[O-])c1)C(=O)c1ccc(Br)cc1 | -16 | -6 | 11 | 4 | 4 | -0.6
Cc1nn(Cc2ccccc2Cl)c(Cl)c1C(=O)NCCc1ccccc1 | -1 | 16 | -30 | 0 | . | 1.4
COCCN(CCOC)C(=O)CCn1c(=O)oc2ccccc21 | 8 | -14 | 4 | -13 | 6 | 0.4
COCCn1c(C)cc(C(=O)COC(=O)c2ccc[nH]c2=O)c1C | 8 | -18 | 3 | 4 | 5 | 0.0
O=C(NCC(=O)N1CCCCC1)c1ccc(Br)o1 | 1 | -3 | ? | 0 | 2 | 0.0
O=C(c1ccco1)N(Cc1cc2ccccc2[nH]c1=O)C1CCCCC1 | -2 | 8 | -14 | 15 | 0 | 2.4
CN(C)C(=S)NC(=O)c1cccc(Cl)c1 | 6 | 59 | 2 | -10 | 0 | -0.3
Cc1cc(C)nc(NS(=O)(=O)c2ccc(NC(=O)C3(c4ccc([N+](=O)[O-])cc4)CCCC3)cc2)n1 | -7 | 1 | 11 | -5 | 0 | 12
Brc1cc2c(cc1Br)OCCOCCOCCOCCO2 | 8 | 24 | -5 | -3 | -1 | -0.3

Further structures follow:
structure | Six1-Eya2 blk | TRPML1 inh | TRPV1 potentiator | D2 PAM | CtBP-E1A blk | TRPML1 agonist
CCOC(=O)C1(CCCc2ccccc2)CCN(C(=O)c2n[nH]c(CC)c2C)CC1 | 1 | -10 | . | -11 | -7 | -0.2
Cc1cccn2c1nc(=S)n2C(=O)c1ccco1 | -4 | 6 | 3 | -13 | -2 | -0.1
O=C(OCC(=O)N(C1CCCCC1)C1CCCCC1)c1ccco1 | 5 | -7 | -19 | -10 | -12 | -0.2
Cc1cc(F)ccc1S(=O)(=O)Nc1ncnc2scc(-c3ccc(F)cc3)c12 | 4 | -9 | 20 | -6 | 0 | 1.5
CC(C)NC(=O)NC(=O)CSc1ccccc1F | 2 | -13 | 8 | -10 | 8 | -0.3
Cc1cc(C)cc(OCc2nc(-c3cccnc3)no2)c1 | 8 | 10 | -13 | -10 | 14 | 1.2
CCc1ccc(CC2S/C(=C(\C#N)C(C)=O)NC2=O)cc1 (configuration not stated) | -2 | 7 | 28 | -7 | 0 | 1.7
CCOc1ccc(C(C(=O)NCC2CCCO2)N(Cc2ccccc2)C(=O)c2snc(C(N)=O)c2N)cc1 (configuration not stated) | -5 | 6 | 9 | 3 | -1 | -0.4
O=C(CSc1nnc2c3ccccc3c3ccccc3c2n1)Nc1ccccc1F | ? | -5 | -5 | 30 | 3 | 0.7
O=C(Cn1c(=O)cnc2ccccc21)Nc1ccccc1N1CCOCC1 | 25 | -9 | 20 | -7 | -5 | -0.2
CCOC(=O)CNC(=O)C(CC(N)=O)NC(=O)OC(C)(C)C (configuration not stated) | 6 | -24 | 25 | 1 | . | 0.4
CCOC(=O)Cn1cc([N+](=O)[O-])c(OC)n1 | 4 | -10 | 7 | 2 | 5 | -0.7
CCC(Sc1ccc2nnc(CCNS(=O)(=O)c3ccc(OC)cc3)n2n1)C(=O)OC (configuration not stated) | 3 | -7&-1 | 10 | 0 | . | 0.5&-0.6
COc1cc(C2C(C#N)=C(N)N(N(C)C)C3=C2C(=O)CCC3)ccc1O (configuration not stated) | -8 | 17 | -25 | 2 | -21 | 0.7
CC(C)Cc1nnc(NC(=O)CCC(=O)Nc2ccccc2)s1 | 0 | -5 | -8 | -3 | 5 | -1.0
COCCCn1c(-c2cccc(Cl)c2)nc2c1c(=O)[nH]c(=O)n2Cc1ccccc1 | 3 | -8 | 7 | 2 | 0 | 0.0
O=S(=O)(Nc1ccc(N2CCCCC2)cc1)c1ccccc1 | 0 | 7 | 16 | -6 | -21 | 1.5
N#Cc1cc2ccccc2nc1SCC(=O)NC1CC1 | -5 | 1 | 2 | -2 | 5 | -0.6
CC(C)C[C@H]1CN=C(Nc2ccccc2)N1CCC(C)c1ccccc1 (some centres not stated) | -2 | 60 | -19 | -16 | 0 | 1.5
